# Assay outcomes deposited in PubChem by Broad Institute.
# Vaccinia inh = blocks a specific stage of Vaccinia orthopoxvirus infection, primary screen, cell-based, single point | Vaccinia-infected cells, mCherry/Venus stage reporter fluorescence; stronger effect = lower value; some inactives read as strong as hits | activity change (mCherry), % (test concentration not listed) | hit rate 0.01% among 89,000 | AID 1053133, 2014;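 active = mCherry past -33% and 40 or more points under the early reporter, replicates agreeing; inconclusive = past -33% without that gap or agreement; tested in A549 cells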;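 also: scaled between vehicle wells and reference inhibitor wells; 23 nL library stock went into each well; one replicate is shown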
# Vaccinia inh Venus = also measured in Vaccinia inh; calls as there; activity change (Venus), %; measured here: Venus reporter, other viral stage;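 negative = less Venus signal; first of two replicates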
# * = called active by the depositor; ? = inconclusive; . = no result given.
# A first look, 2 compounds:
canonical_smiles	Vaccinia inh	Vaccinia inh Venus
C[C@@H]1CN([C@H](C)CO)S(=O)(=O)c2ccc(C#C[C@@H](C)O)cc2O[C@H]1CN(C)C(=O)C1CCC1	16	14
O=C(Nc1ccc(F)cc1)N[C@@H]1CC[C@H](CCNS(=O)(=O)c2ccccc2F)O[C@H]1CO	-10	-14

# This part in full, previewed entries included:
canonical_smiles	Vaccinia inh	Vaccinia inh Venus
C[C@@H]1CN([C@H](C)CO)S(=O)(=O)c2ccc(C#C[C@@H](C)O)cc2O[C@H]1CN(C)C(=O)C1CCC1	16	14
O=C(Nc1ccc(F)cc1)N[C@@H]1CC[C@H](CCNS(=O)(=O)c2ccccc2F)O[C@H]1CO	-10	-14
COc1ccc(NC(=O)Nc2ccc3c(c2)[C@@H]2C[C@@H](CC(=O)N4CCCCC4)O[C@@H](CO)[C@@H]2O3)cc1	10	3
C[C@@H]1CN([C@H](C)CO)C(=O)c2c(c3ccccc3n2C)-c2ccccc2CO[C@H]1CN(C)S(=O)(=O)c1ccc([N+](=O)[O-])cc1	?	.
C[C@@H]1CN([C@H](C)CO)S(=O)(=O)c2ccc(C#CCC3CCCC3)cc2O[C@H]1CN(C)Cc1ccc(C(=O)O)cc1	11	-4
C[C@@H]1CN([C@@H](C)CO)C(=O)c2cc(NS(C)(=O)=O)ccc2O[C@@H]1CN(C)Cc1ccc2c(c1)OCO2	1	1
C[C@H]1CN([C@@H](C)CO)C(=O)c2ccccc2-c2ccccc2CO[C@@H]1CN(C)Cc1ccc(Cl)c(Cl)c1	?	.
Cc1ccc(S(=O)(=O)N(C)C[C@@H]2OCCCC[C@@H](C)Oc3ccc(NC(=O)Nc4ccc5c(c4)OCO5)cc3C(=O)N([C@H](C)CO)C[C@@H]2C)cc1	19	7
CCCN(C)C[C@@H]1OCCCC[C@@H](C)Oc2ccc(NC(=O)Nc3ccc(OC)cc3)cc2C(=O)N([C@H](C)CO)C[C@@H]1C	-8	-3
C[C@H]1CN([C@@H](C)CO)C(=O)c2cc(-c3cccc(F)c3)cnc2O[C@H]1CN(C)S(C)(=O)=O	14	11
CCc1cnc(N2[C@@H](C#N)[C@H](c3ccc(C4=CCCCC4)cc3)[C@@H]2CO)s1	-16	-13
C[C@H](CO)N1C[C@H](C)[C@H](CN(C)S(=O)(=O)c2cn(C)cn2)Oc2ccc(NC(=O)CCCCCC(=O)Nc3ccccc3N)cc2C1=O	17	10
C[C@@H]1CN([C@@H](C)CO)S(=O)(=O)c2ccc(C#Cc3ccccc3)cc2O[C@H]1CN(C)C(=O)Nc1ccc2c(c1)OCO2	-9	-7
CCCNC(=O)C[C@@H]1CC[C@@H]2[C@H](COC[C@@H](O)CN2Cc2ccccc2F)O1	3	-3
C[C@H]1CN([C@@H](C)CO)C(=O)c2c(c3ccccc3n2C)-c2ccccc2CO[C@@H]1CN(C)Cc1cccc2c1OCCCO2	?	.
C[C@@H]1CN([C@@H](C)CO)C(=O)c2cccc(NS(=O)(=O)c3cccs3)c2O[C@H]1CN(C)C(=O)Nc1ccc(C(F)(F)F)cc1	-2	-2
C[C@H](NC(=O)[C@H]1[C@H](CO)[C@H]2Cn3c(cccc3=O)[C@H]2N1Cc1ccncc1)c1ccccc1	-1	2
C[C@H](CO)N1C[C@H](C)[C@@H](CN(C)S(C)(=O)=O)Oc2c(NC(=O)C3CCCCC3)cccc2C1=O	5	2
COc1ccc(CN(C)C[C@H]2Oc3ccc(NC(=O)NC(C)C)cc3CC(=O)N([C@@H](C)CO)C[C@@H]2C)cc1	9	2
COC(=O)c1cn(CCNC(=O)[C@@H](NS(=O)(=O)c2ccc(C)cc2)C(C)C)nn1	8	4
COc1cccc(-c2cnc3c(c2)C(=O)N([C@@H](C)CO)C[C@H](C)[C@@H](CN(C)CC2CCOCC2)O3)c1	3	11
C/C=C/c1ccc([C@H]2[C@@H](CO)N(S(C)(=O)=O)[C@H]2CN(CCC)C(C)=O)cc1	-7	3
C[C@@H]1CN([C@@H](C)CO)C(=O)c2cc(NC(=O)C3CCCCC3)ccc2O[C@@H](C)CCCCO[C@@H]1CN(C)C(=O)CCCN(C)C	28	6
C=CCN1Cc2ccccc2[C@@H]2OC(c3ccc(OCCCO)cc3)=N[C@]2(CCS(=O)(=O)c2ccccc2)C1=O	?	.
COc1ccc(S(=O)(=O)N(C)C[C@H]2Oc3c(NC(=O)Nc4ccc5c(c4)OCO5)cccc3C(=O)N([C@H](C)CO)C[C@@H]2C)cc1	-7	-5
C[C@@H]1CCCCO[C@H](CN(C)Cc2ccccc2)[C@@H](C)CN([C@@H](C)CO)C(=O)c2cc(NC(=O)Nc3ccccc3)ccc2O1	?	.
CCCNC(=O)N1CC2(CN(C(=O)Cc3cccnc3)C2)c2c([nH]c3cc(OC)ccc23)[C@H]1CO	9	10
C[C@H]1CN([C@@H](C)CO)C(=O)c2cccc(NS(=O)(=O)c3cccs3)c2O[C@H]1CN(C)Cc1ccc(C(=O)O)cc1	3	-1
Cc1cccc(-c2ccc([C@H]3[C@@H](CO)N4C(=O)CN(S(=O)(=O)c5cccc(F)c5)C[C@@H]34)cc2)c1	20	-3
C[C@@H]1CN([C@H](C)CO)C(=O)c2cccc(NC(=O)NC3CCCCC3)c2O[C@@H]1CN(C)S(=O)(=O)c1ccc(F)cc1	-11	-10

# Brought forward from above: 4 entries, followed by the next part.
canonical_smiles	Vaccinia inh	Vaccinia inh Venus
CCCNC(=O)N1CC2(CN(C(=O)Cc3cccnc3)C2)c2c([nH]c3cc(OC)ccc23)[C@H]1CO	9	10
C[C@H]1CN([C@@H](C)CO)C(=O)c2cccc(NS(=O)(=O)c3cccs3)c2O[C@H]1CN(C)Cc1ccc(C(=O)O)cc1	3	-1
Cc1cccc(-c2ccc([C@H]3[C@@H](CO)N4C(=O)CN(S(=O)(=O)c5cccc(F)c5)C[C@@H]34)cc2)c1	20	-3
C[C@@H]1CN([C@H](C)CO)C(=O)c2cccc(NC(=O)NC3CCCCC3)c2O[C@@H]1CN(C)S(=O)(=O)c1ccc(F)cc1	-11	-10
COc1cccc(CN2CC3(CCN(C)CC3)c3c(n(C)c4cc(OC)ccc34)[C@H]2CO)c1	?	.
CC(=O)N(C)C[C@@H]1Oc2ncc(C#CCc3ccccc3)cc2C(=O)N([C@@H](C)CO)C[C@@H]1C	33	20
O=C(C[C@@H]1CC[C@H](NC(=O)Nc2cccc(F)c2)[C@H](CO)O1)NCC1CC1	-1	1
C[C@H](CO)N1C[C@H](C)[C@@H](CN(C)Cc2ccc(Oc3ccccc3)cc2)Oc2ccc(NC(=O)CCN3CCOCC3)cc2C1=O	-11	-7
COCC(=O)NC[C@@H]1[C@H](c2ccc(C3=CCCC3)cc2)[C@@H](CO)N1C(=O)C1CC1	5	7
O=C(Nc1ccccc1)C1=C[C@@H](c2ccc(Br)cc2)C[C@@H](OCc2ccc(CO)cc2)O1	0	4
COc1ccc(NC(=O)N(C)C[C@@H]2Oc3c(NC(=O)Nc4ccccc4)cccc3C(=O)N([C@H](C)CO)C[C@H]2C)cc1	-6	-4
O=C(Nc1cccc(F)c1)N1C[C@H]2[C@@H](c3ccccc31)[C@H](CO)N2C(=O)Cc1ccccc1	3	-2
O=C(Nc1ccccc1F)N[C@H]1CC[C@H](CCNS(=O)(=O)c2ccc(Cl)cc2)O[C@@H]1CO	-18	-7
CN(C)CC(=O)Nc1ccc2c(c1)[C@@H]1C[C@@H](CC(=O)N(C)C)O[C@H](CO)[C@@H]1O2	2	3
OC[C@H]1[C@@H](c2ccc(-c3cccnc3)cc2)[C@@H]2CN(Cc3ccccn3)CCCCN12	9	0
C[C@H](CO)N1C[C@H](C)[C@H](CN(C)C)Oc2ncc(-c3ccc(C(=O)N(C)C)cc3)cc2C1=O	17	6
C[C@@H]1CCCCO[C@H](CN(C)C(=O)CCC(F)(F)F)[C@@H](C)CN([C@@H](C)CO)C(=O)c2cc(NS(=O)(=O)c3ccccc3)ccc2O1	-13	-15
CC(C)NC(=O)Nc1ccc2c(c1)C(=O)N(C)[C@@H]1CC[C@@H](CC(=O)NCC3CCCCC3)O[C@H]1CO2	-5	-15
C[C@H](CO)N1C[C@H](C)[C@H](CN(C)Cc2ccc(C(F)(F)F)cc2)Oc2ccc(NC(=O)C3CCCCC3)cc2C1=O	-34	-31
COc1ccc(S(=O)(=O)N[C@@H]2CC[C@H](CCn3cc(C(C)C)nn3)O[C@@H]2CO)cc1	0	1
C[C@@H]1CN([C@@H](C)CO)C(=O)c2cc(NC(=O)C3CCCCC3)ccc2O[C@@H](C)CCCCO[C@H]1CN(C)S(=O)(=O)c1cn(C)cn1	19	13
C[C@@H]1CN([C@H](C)CO)C(=O)c2cc(NC(=O)Cc3ccccc3)ccc2O[C@@H]1CN(C)S(=O)(=O)c1ccccc1	3	12
C[C@@H](NC(=O)C[C@H]1C=C[C@@H](NC(=O)Cc2ccccn2)[C@H](CO)O1)c1ccccc1	3	-3
C[C@H](CO)N1C[C@H](C)[C@@H](CN(C)Cc2cncnc2)Oc2cc(C3=CCCC3)ccc2S1(=O)=O	17	8
C#CCNC(=O)C1=C[C@H](c2ccc(Br)cc2)C[C@H](OCc2ccc(CO)cc2)O1	-1	-3
CCNC(=O)C[C@H]1CC[C@@H]2[C@H](COC[C@H](O)CN2S(=O)(=O)c2ccccc2F)O1	3	7
C[C@H]1CN([C@@H](C)CO)C(=O)c2cccc(NC(=O)Nc3ccc4c(c3)OCO4)c2O[C@H]1CN(C)S(=O)(=O)c1ccc(Cl)cc1	?	.
C[C@@H]1CN([C@@H](C)CO)C(=O)Cc2cc(NC(=O)CCN3CCOCC3)ccc2O[C@H]1CN(C)Cc1ccc(Cl)c(Cl)c1	?	.
CO[C@H]1CN(C)C(=O)c2ccc(NC(=O)c3ccc4c(c3)OCO4)cc2OC[C@H](C)NC[C@H]1C	3	0
C/C=C/c1ccc2c(c1)O[C@H](CN(C)C(=O)c1ccccc1F)[C@H](C)CN([C@H](C)CO)S2(=O)=O	-19	-9
C[C@H](CO)N1C[C@H](C)[C@H](CN(C)S(=O)(=O)c2ccc(F)cc2)Oc2c(NC(=O)Nc3ccc(F)cc3)cccc2C1=O	?	.
O=C(C[C@@H]1CC[C@@H]2[C@H](COC[C@H](O)CN2Cc2nccs2)O1)NCc1ccccc1	6	11
CC(C)CC#Cc1ccc2c(c1)O[C@H](CN(C)C(=O)Cc1ccccn1)[C@@H](C)CN([C@H](C)CO)S2(=O)=O	-16	-11
C[C@H](CO)N1C[C@H](C)[C@@H](CN(C)C)Oc2cc(-c3cccc(C(=O)N(C)C)c3)ccc2S1(=O)=O	0	10

# Entries of single compounds, quoted from the list:
# Listed for OC[C@H]1[C@@H](c2ccc(-c3cccnc3)cc2)[C@@H]2CN(Cc3ccccn3)CCCCN12 → Vaccinia inh = 9; Vaccinia inh Venus = 0
# Listed for C[C@@H]1CN([C@@H](C)CO)C(=O)c2cc(NS(C)(=O)=O)ccc2O[C@@H]1CN(C)Cc1ccc2c(c1)OCO2 → Vaccinia inh = 1; Vaccinia inh Venus = 1
# Listed for C[C@H](NC(=O)[C@H]1[C@H](CO)[C@H]2Cn3c(cccc3=O)[C@H]2N1Cc1ccncc1)c1ccccc1 → Vaccinia inh = -1; Vaccinia inh Venus = 2

# Additional results
canonical_smiles	Vaccinia inh	Vaccinia inh Venus
COc1ccc2c3c(n(C)c2c1)[C@@H](CO)N(C(=O)C1CCCCC1)CC31CCN(C(=O)CN(C)C)CC1	-9	-8
Cc1ccc(S(=O)(=O)N(C)C[C@@H]2OCCCC[C@H](C)Oc3ccc(NC(=O)NC(C)C)cc3C(=O)N([C@@H](C)CO)C[C@H]2C)cc1	7	2
Cc1ccc(S[C@]2(C(=O)NC3CC3)CC(=O)N(C3CCCCC3)[C@@H]2c2ccc(CO)cc2I)cc1	-15	-11
C[C@H]1CN([C@@H](C)CO)C(=O)Cc2cc(NC(=O)NC3CCCCC3)ccc2O[C@H]1CN(C)Cc1ccc(C(F)(F)F)cc1	-20	-25
O=C(C1CC1)N1CC2(C1)[C@@H](c1ccccc1)[C@@H](CO)N2C(=O)CC1CC1	22	17
O=C(C[C@@H]1C[C@H]2c3cc(NC(=O)c4ccc5c(c4)OCO5)ccc3O[C@H]2[C@H](CO)O1)NCc1ccc(Cl)cc1	?	.
C[C@@H]1CN([C@@H](C)CO)S(=O)(=O)c2ccc(C#CC3CCCC3)cc2O[C@H]1CN(C)C(=O)Cc1ccccc1	-18	-13
COc1ccccc1-c1ccc([C@H]2[C@H]3CN(C(=O)c4ccncc4)CCCCN3[C@H]2CO)cc1	-3	-6
COc1ccc(NC(=O)N(C)C[C@@H]2Oc3ccc(NC(=O)Nc4c(C)noc4C)cc3CC(=O)N([C@@H](C)CO)C[C@@H]2C)cc1	7	0
O=C(NCC[C@@H]1CC[C@H](NS(=O)(=O)c2cccc(F)c2)[C@@H](CO)O1)C1CCOCC1	13	5
CCC(=O)Nc1ccc2c(c1)C(=O)N(C)C[C@@H](OC)[C@@H](C)CN(Cc1cccc(F)c1)[C@@H](C)CO2	-21	-9
Cn1cnc(S(=O)(=O)N2CCCCN3[C@H](CO)[C@@H](c4ccc(-c5ccccc5)cc4)[C@H]3C2)c1	-19	-21
Cc1noc(C)c1S(=O)(=O)Nc1ccc2c(c1)CC(=O)N([C@@H](C)CO)C[C@H](C)[C@H](CN(C)C(=O)Nc1ccc(F)cc1)O2	11	-6
CC(C)NC(=O)N1[C@H](C(=O)N2CCc3ccccc3C2)[C@@H](CO)[C@@H]2Cn3c(cccc3=O)[C@@H]21	13	7

# A portion of the library; count on the stated rates, not on these rows.
